MgrA DNA FP = S. aureus MgrA activity modulators, primary screen, biochemical, S. aureus Newman, fluorescence polarization. MgrA-DNA binding. inhibition, %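 (about 10 µg/mL by stock and volumes)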. actives 0.13% (n = 84,000). AID 602314, 2012;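 active = above 50% in either of two replicates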;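 also: 0% = protein plus DNA without compound and 100% = DNA alone without protein; higher means less MgrA bound to DNA so lower polarization; one replicate is shown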
S aureus helic = inhibitors of S. aureus replicative helicase, primary screen, biochemical, fluorescence unwinding readout | actives 0.05% (n = 120,000) | purified S. aureus helicase, fluorescence unwinding assay; about half of the hits fall short of the stated cut | inhibition, %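 (tested at about 80 µM)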;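 active = both duplicates at 50% or more, or one of them with a favoured structure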;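 also: 0% = mean of negative control wells and 100% = mean of positive control wells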
Active calls of the source: *; · = not tested or not shown.

MgrA DNA FP	S aureus helic	compound
1.9	6	COc1cccc(N=CC2=C3N(CCC2)c2ccccc2C3(C)C)c1
-2.5	9	Cn1c2c(c(=O)n(C)c1=O)C(c1ccccc1)C(C#N)=C(N)O2 (stereo unspecified)
·	-4	O=C(Nc1ccccc1N1CCOCC1)c1cc(C2CC2)nn1-c1ccccc1
-3.6	26	Cc1ccc2c(CC(=O)O)coc2c1
·	-17	O=C(O)C1COc2ccccc2C1 (stereo unspecified)
-1.5	·	N#C/C(=C\c1cc(Cl)cc(Cl)c1)c1cccnc1
·	22	O=C(CO/N=C/c1ccco1)Nc1ccc(OC(F)F)cc1
·	10	CC(C)(C)C(=O)NCC12CC3CC(CC(C3)C1)C2
·	9	COc1cc(OC)cc(-c2nnc(SCC(=O)N=c3sccn3Cc3ccc(C)cc3)o2)c1
-2.4	4	Cc1cccc(C(=O)C2CCN(S(=O)(=O)c3ccc(C(=O)O)cc3)CC2)c1
·	23	COc1ccc2c(c1)[nH]c1c(=O)n(CCN3CCCCC3C)cnc12 (stereo unspecified)
0.0	·	Cc1cc(C)c(I)c(C)c1
1.2	15	Cc1ccc(C)c(NCN2C(=O)CSC2=O)c1
-2.1	·	Cn1c(SCC(=O)Nc2ccccc2)nnc1-c1cncc(C#Cc2ccccc2)c1
-2.1	9	CCCNC(=O)C1CC(c2ccc(OC)cc2)=NO1 (stereo unspecified)
-1.2	·	Cc1nn(C(=O)c2ccccc2)c(C)c1Oc1ccccc1
·	12	COC(=O)C(C)Sc1ncnc2c1oc1ccccc12 (stereo unspecified)
-1.2	0	COC(=O)CCc1[nH]c2ccccc2c1Sc1ccccc1
·	4	COc1ccccc1-c1nnc(SCC(=O)C(C)(C)C)n1Cc1ccco1
0.8	3	O=C(NCCN1CCOCC1)c1c(Cl)cccc1Cl

Remaining list, next part.
MgrA DNA FP	S aureus helic	compound
·	-7	Cc1cnc(NC(=O)c2cccc3ccccc23)s1
·	21	c1c2c(cc3c1OCO3)OCN(CC13CC4CC(CC(C4)C1)C3)C2
-2.2	0	Cc1ccccc1NC(=O)C1CC(O)CN1C(=O)OCc1ccccc1 (stereo unspecified)
·	33	COC(=O)c1ccccc1NC(=O)COC(=O)/C=C/c1ccco1
-1.3	13	CC1CCN(C(=O)c2ccccc2NC(=O)Nc2ccccc2)CC1
-1.6	·	C=CCn1c(SCC(=O)NCc2ccco2)nc2sc3c(c2c1=O)CCC3
·	4	Cc1nc2cccc(C(=O)NCc3ccccc3)c2o1
1.5	·	CC(C)c1ccc(NC(=S)Nc2cccc(C(F)(F)F)c2)cc1
1.0	·	O=C(NCc1ccc(-c2csnn2)cc1)c1cc(Cl)cc(Cl)c1
·	-19	C=CCN1CNc2c(c(=O)[nH]c(=S)n2-c2cccc(C)c2C)C1
·	-14	N#CC1=C(SCC(=O)N(c2ccccc2)c2ccccc2)NC(=O)CC1c1ccco1 (stereo unspecified)
-0.1	·	Cn1c(=O)c2c(nc(NCCOCCO)n2Cc2ccc(Cl)c(Cl)c2)n(C)c1=O
·	-15	COc1cccc(OC)c1CO
·	3	N=c1n(CCO)c2ccccc2n1Cc1ccccc1Cl
5.1	8	OCc1nnc2n1N=C(c1ccc(Cl)cc1)CS2
-2.2	·	Cc1ccc(OCc2nnc(SCC(=O)Nc3ccc(C4CCCCC4)cc3)n2-c2ccccc2)c2c1CCC2
4.2	17	CCc1ccc(N(CC(=O)N2CCCCC2)S(C)(=O)=O)cc1
·	-18	O=C(c1ccc(Cn2c(=O)c3cccn3c3cccnc32)cc1)N1CCCC1
·	-2	CC(On1nnc2ccccc21)C(=O)Nc1ccc(Cl)cc1Cl (stereo unspecified)
·	12	CC(C)(C)n1ncc2c(=O)n(CC(=O)N3CCCc4ccccc43)cnc21

Next part.
MgrA DNA FP	S aureus helic	compound
·	-10	N#CCOC(=O)c1ccccc1S(=O)(=O)N1CCCCC1
-1.6	·	CS(=O)(=O)Nc1ccccc1-c1nnc(Cc2cc(F)cc(F)c2)o1
-0.2	11	COc1cccc(CN(C(=O)/C=C/c2ccccc2)C2CCS(=O)(=O)C2)c1 (stereo unspecified)
·	-21	CCC(C)Nc1cc(C(C)C)c(C#N)c2nc3ccccc3n12 (stereo unspecified)
-0.2	·	CCN(CC)C(=O)c1ccc(-c2cccs2)s1
1.8	7	Cc1cc(C)nc(SCc2cc(-c3nn(C)c(=O)c4ccccc34)ccc2C)n1
-1.1	9	CCn1c2ccccc2c2nnc(NCCN3CCN(c4cc(Cl)ccc4C)CC3)nc21
·	7	Cc1nn(-c2ccccc2)c(N2CCCC2)c1/C=N/O
0.1	7	Cn1c(SCCc2ccccc2)nnc1-c1ccc2c(c1)OCO2
·	4	CCOC(=O)c1nc(C)sc1-c1ccnn1S(=O)(=O)c1ccc(C)cc1
-2.1	6	COC(=O)C(O)(c1ccc(N)c(OC)c1)C(F)(F)F (stereo unspecified)
·	16	C/C(CCc1oc2ccc(Br)cc2c1-c1ccc(C)o1)=N\O
-1.8	8	CCn1c(C(=O)NC2CC2)cc2sc(Cl)cc21
0.4	·	COc1ccc(C2CC(=O)C3=C(C2)NC(C)=C(C#N)C3c2cc3c(cc2Cl)OCO3)cc1 (stereo unspecified)
·	-40	Cc1onc(-c2ccccc2)c1C(=O)C(C#N)c1nc(-c2ccc(F)cc2)cs1 (stereo unspecified)
-0.5	9	Cc1c(O)c(CN2CCC(C)CC2)cc2c(-c3ccccc3)cc(=O)oc12
·	6	Cc1cc2c(cc1S(=O)(=O)N(C)Cc1ccccc1)n(C)c(=O)c(=O)n2C
4.2	5	COc1cccc(NC(=O)c2oc3ccc(S(=O)(=O)N4CC(C)CC(C)C4)cc3c2C)c1 (stereo unspecified)
-1.6	·	CNS(=O)(=O)c1ccc(Br)cc1I
·	6	Cc1ccc(-c2nc(CSCC(=O)NCCN3CCN(c4cccc(Cl)c4)CC3)c(C)o2)cc1

New compounds follow
MgrA DNA FP	S aureus helic	compound
-3.7	4	Cc1ccc(-c2csc(N3CCC(NS(=O)(=O)c4ccc5c(c4)OCCO5)CC3)n2)cc1
·	-5	CCOC(=O)c1c(C)n(C)c2ccc(OCC(O)Cn3nnc4ccccc43)cc12 (stereo unspecified)
4.5	8	Cc1cc(/C=C2/SC(=O)N(c3ccccc3)C2=O)c(C)n1-c1cccnc1
·	-20	O=C(NCCCN1CCCC1)c1cc2ccc3cccnc3c2[nH]1
-1.0	·	N#Cc1c(N2CCOCC2)cccc1-n1ccnc1
·	14	CNS(=O)(=O)c1ccc(NC(=O)CCC(=O)c2ccc(C)cc2)cc1
·	15	OCCN(Cc1ccccc1)Cc1ccccc1
0.4	·	COc1ccccc1C1CCN(S(=O)(=O)c2cccc(Br)c2)CC1
·	8	COc1ccc(OCCn2c(S(=O)(=O)Cc3ccccc3)nc3ccccc32)cc1
8.1	3	COc1ccc(CCNC(=O)c2cc3sc(C)cc3n2C)cc1OC
·	-9	CCCCN(Cc1cc2ccccc2[nH]c1=O)S(C)(=O)=O
·	21	N#CSCC(=O)c1ccc(Br)cc1
-3.5	·	O=c1cc(C(F)(F)F)nc(-c2cccs2)[nH]1
·	25	CC(C)(C)c1csc(NC(=O)c2ccc(F)cc2)n1
0.4	-16	c1ccc2c(c1)nc(SC1CCCCC1)c1nncn12
·	-3	Cc1[nH]c2ccc(C(=O)OC3CCOC3=O)cc2c1C (stereo unspecified)
·	-4	c1csc(CNCc2cccs2)c1
·	6	COC(=O)c1ccc(NC(=O)COC(=O)C2=NN(c3ccccc3)C(=O)CC2)cc1
1.9	-2	CC1CCN(C(=O)CN(C)S(=O)(=O)c2ccc3ccccc3c2)CC1
-1.2	-2	C=CCNC(=O)c1ccc2c(c1)N(Cc1cccc(Cl)c1)C(=O)c1ccccc1S2

Next structures
MgrA DNA FP	S aureus helic	compound
4.2	3	COc1ccccc1N1C(=O)CCC1(C#N)c1ccc(OCc2ccccc2)cc1 (stereo unspecified)
1.3	18	CCC(=O)Nc1cc(C(=O)O)ccc1Sc1ccc(OC)cc1
-1.2	0	c1ccc(C2Oc3ccccc3C3Oc4ccccc4CC23)cc1 (stereo unspecified)
·	26	S=c1n(CN2CCCCC2)nc2n1CCCCC2
12	13	CC1CCCCN1S(=O)(=O)c1ccc(NC(=O)/C=C/c2ccco2)cc1 (stereo unspecified)
0.7	·	COc1ccc(S(=O)(=O)n2ccc(C3CC3)n2)cc1
·	12	O=C(CNS(=O)(=O)Cc1ccccc1)NCc1ccccc1
·	2	O=c1[nH]cc(NCc2ccco2)c(=O)[nH]1
·	14	C#CCOC1(C)COC(C)(OCC#C)CO1 (stereo unspecified)
·	-8	CCOC(=O)/C(C#N)=C\Nc1ccc(-c2nnc(C(F)(F)F)o2)cc1C
1.1	10	COc1ccc(S(=O)(=O)NCCC(=O)NC2CCCCC2)cc1
0.6	·	N#Cc1c(C(F)(F)F)cc(-c2cccs2)nc1OCC(=O)c1ccccc1
·	15	N#CCc1cc(Cl)cc2c1OCOC2
-5.0	22	Cc1ccc(C)c(NC(=O)c2ccc(-n3cnnc3)cc2)c1
·	-15	CCOC(=O)c1c(N)n(CCc2ccccc2)c2nc3ccccc3nc12
-0.6	·	CCOC(=O)C1=C(C)N=c2s/c(=C\c3ccc(OC)cc3)c(=O)n2C1c1cc(OC)ccc1OC (stereo unspecified)
·	-7	O=P(c1ccccc1)(c1nc2ccccc2s1)N1CCCCC1 (stereo unspecified)
2.4	·	Cc1cc(CSC(=N)N)c(CSC(=N)N)cc1C
·	0	O=C(O)C1Cc2ccccc2CN1C(=O)CSc1nnc2ccccn12 (stereo unspecified)
·	-14	CCOC(=O)c1cnc2ccc(C(=O)OC)cc2c1NCc1cccnc1

(more compounds)
MgrA DNA FP	S aureus helic	compound
·	18	Cc1c(C(=O)N(CC(F)(F)F)C(C)C2CC2)oc2c(F)cccc12 (stereo unspecified)
·	9	CC(=O)Nc1nc(CSc2nnnn2-c2ccc(Cl)cc2)cs1
·	33	CCCCCC1C(O)CCC1CC(=O)NN (stereo unspecified)
-1.1	16	O=C1OC(c2ccccc2)C(O)(c2ccccc2)C12CCCCC2 (stereo unspecified)
·	8	O=C(O)C1C2C=CC3(CN(Cc4ccccc4)C(=O)C13)O2 (stereo unspecified)
-5.7	17	O=C(Nc1cccc(Cl)c1)NC1CCN(C2CCCCC2)C1 (stereo unspecified)
-0.5	-8	CCN(Cc1ccccc1)C(=O)CSc1nc(C)c(Cl)c(C)c1C#N
-3.5	·	O/N=C/c1cc(C(F)(F)F)cc(C(F)(F)F)c1
-1.2	20	CCc1nnc(NC(=O)CC2CC3CCC2C3)s1 (stereo unspecified)
-2.8	·	ClCc1cc(-c2ccccc2)on1
2.5	·	COc1cc(/C=C2\Sc3ccccc3C2=O)c(Br)cc1OCc1ccccc1
-1.6	-22	COc1ccc(CN2C(=O)C(F)(F)C2c2cccc(Cl)c2)cc1 (stereo unspecified)
·	23	CCn1nc(C(=O)N2CCCSC2=Nc2ccccc2)c2ccccc2c1=O
·	11	Cc1ccc(C(CCNC(=O)c2cccs2)c2ccco2)cc1 (stereo unspecified)
4.5	3	O=C(N=CNC(=O)c1cccnc1)c1cccnc1
1.2	0	Cc1cc(C)c2oc(-c3ccc(N)cc3O)nc2c1
-2.2	·	CC(C)(C)c1ccc(Oc2ncccc2NC(=O)c2ccccc2C(F)(F)F)cc1
·	16	O=c1cc(CO)oc(CN2CCCCC2)c1O
·	-13	COc1ccc(OC)c(CCNC(=O)C2CCCN(c3ncnc4onc(C)c34)C2)c1 (stereo unspecified)

For reference, some entries already given.
MgrA DNA FP	S aureus helic	compound
·	-15	CCOC(=O)c1c(N)n(CCc2ccccc2)c2nc3ccccc3nc12
-0.6	·	CCOC(=O)C1=C(C)N=c2s/c(=C\c3ccc(OC)cc3)c(=O)n2C1c1cc(OC)ccc1OC (stereo unspecified)
·	-7	O=P(c1ccccc1)(c1nc2ccccc2s1)N1CCCCC1 (stereo unspecified)
2.4	·	Cc1cc(CSC(=N)N)c(CSC(=N)N)cc1C
·	0	O=C(O)C1Cc2ccccc2CN1C(=O)CSc1nnc2ccccn12 (stereo unspecified)
·	-14	CCOC(=O)c1cnc2ccc(C(=O)OC)cc2c1NCc1cccnc1
·	18	Cc1c(C(=O)N(CC(F)(F)F)C(C)C2CC2)oc2c(F)cccc12 (stereo unspecified)
·	9	CC(=O)Nc1nc(CSc2nnnn2-c2ccc(Cl)cc2)cs1
·	33	CCCCCC1C(O)CCC1CC(=O)NN (stereo unspecified)
-1.1	16	O=C1OC(c2ccccc2)C(O)(c2ccccc2)C12CCCCC2 (stereo unspecified)
·	8	O=C(O)C1C2C=CC3(CN(Cc4ccccc4)C(=O)C13)O2 (stereo unspecified)
-5.7	17	O=C(Nc1cccc(Cl)c1)NC1CCN(C2CCCCC2)C1 (stereo unspecified)
-0.5	-8	CCN(Cc1ccccc1)C(=O)CSc1nc(C)c(Cl)c(C)c1C#N
-3.5	·	O/N=C/c1cc(C(F)(F)F)cc(C(F)(F)F)c1
-1.2	20	CCc1nnc(NC(=O)CC2CC3CCC2C3)s1 (stereo unspecified)
-2.8	·	ClCc1cc(-c2ccccc2)on1
2.5	·	COc1cc(/C=C2\Sc3ccccc3C2=O)c(Br)cc1OCc1ccccc1
-1.6	-22	COc1ccc(CN2C(=O)C(F)(F)C2c2cccc(Cl)c2)cc1 (stereo unspecified)
·	23	CCn1nc(C(=O)N2CCCSC2=Nc2ccccc2)c2ccccc2c1=O
·	11	Cc1ccc(C(CCNC(=O)c2cccs2)c2ccco2)cc1 (stereo unspecified)
4.5	3	O=C(N=CNC(=O)c1cccnc1)c1cccnc1
1.2	0	Cc1cc(C)c2oc(-c3ccc(N)cc3O)nc2c1

Screening results from PubChem BioAssay.

Only part of the results is shown; rates above refer to the full screens.
